Screens from PubChem BioAssay.
VDR inh: Inhibitors of the vitamin D receptor (VDR): qHTS; Vitamin D3 receptor (Homo sapiens), P11473; VDR-SRC2-3 peptide fluorescence polarization, 2 h; Potency, µM, for inactives: max response, negative = inhibition, actives largely listed as inhibitors; 400,000 tested, 0.93% active; active means well fitted inhibition curve with a large enough effect; inconclusive means small, poorly fitted or top-dose-only effect, or another doubt; inactive means no such curve, though single readings can be large or run the other way; further: series mostly up to about 120 µM
Target sequence (P11473 whole entry, looked up): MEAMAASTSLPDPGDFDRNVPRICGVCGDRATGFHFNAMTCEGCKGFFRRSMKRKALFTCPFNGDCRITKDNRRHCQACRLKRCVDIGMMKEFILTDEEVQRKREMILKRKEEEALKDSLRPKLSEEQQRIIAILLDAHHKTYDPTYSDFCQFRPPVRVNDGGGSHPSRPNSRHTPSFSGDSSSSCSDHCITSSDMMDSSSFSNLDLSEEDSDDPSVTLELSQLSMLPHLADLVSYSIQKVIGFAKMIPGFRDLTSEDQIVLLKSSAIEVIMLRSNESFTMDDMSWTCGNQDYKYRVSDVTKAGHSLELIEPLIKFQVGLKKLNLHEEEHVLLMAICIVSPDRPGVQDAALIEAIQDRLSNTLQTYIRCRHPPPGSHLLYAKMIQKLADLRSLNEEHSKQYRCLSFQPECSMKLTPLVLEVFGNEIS
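Fluorescence polarization assay measuring small-molecule disruption of VDR binding to the coregulator peptide SRC2-3. Compounds were pin-transferred (23 nl) into the reagent mix and incubated 2 h at room temperature before reading.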
* marks the source's active call; other numbers are inactive results; ? = inconclusive; & = joins results of further samples. On the % scale 0 is the no-effect control and ±100 the full control effect; potency means the concentration at half of the fitted maximal effect.

VDR inh | mol
-11% | Cc1ccc(-c2nnc(Nc3ccc(O)cc3)c3ccccc23)cc1S(=O)(=O)N1CCCCC1
-20% | Cc1ccc2nc(SCC(=O)NCCc3ccccc3)nc(=O)n2c1
-3% | COc1ccc(-n2c(=S)[nH]c(=O)c3cccnc32)cc1
-5% | CS(=O)(=O)Nc1ccc(C(=O)N2CC(=O)Nc3ccccc32)cc1
-4% | CN1CC(C(=O)Nc2ccc(F)c(Cl)c2)CC1=O (centres undefined)
-5% | CSCCC(NC(=O)COc1ccccc1)C(=O)N(C)Cc1ccc(SC)cc1 (centres undefined)
-19% | CCCn1c(SCC(N)=O)nc2c(c1=O)C1(CCCC1)Cc1ccccc1-2
-24% | Cc1csc(NC(=O)c2cc([N+](=O)[O-])cc([N+](=O)[O-])c2)n1
-9% | COC(=O)N/N=C(\C)c1cccs1
-4% | O=c1c(-c2ccccc2Cl)c[nH]n1-c1ccccc1
-8% | COc1cc(C(=O)OCCNC(=O)c2ccccc2)cc(OC)c1OC
-11% | Cn1cnc([N+](=O)[O-])c1Oc1ccc2ccccc2c1
10% | CC(C)c1nnc(SCC(=O)NC2CCCCC2)n1C
0% | COc1ccc(S(=O)(=O)NCc2ccncc2)cc1NC(=O)c1ccccc1
-3% | CCOc1ccc(/C=N/NC(=O)c2nnn(-c3nonc3N)c2COc2ccc(F)cc2)cc1
8% | CCOC(=O)C1=C(CSc2nc3c(cc2C#N)CN(C)CC3)OC(N)=C(C#N)C1c1ccc(F)cc1 (centres undefined)
0% | CCOc1ccc(CN2CCN(CCCc3ccccc3)C(CCO)C2)cc1 (centres undefined)
3% | Cc1c(NC(=O)CSc2nnnn2-c2ccc(C(=O)O)cc2)c(=O)n(-c2ccccc2)n1C
0% | CCSc1nnc(CNc2ccc(F)cc2)n1CC1CCCO1 (centres undefined)
-7% | COc1ccc(C(=O)NNC(=S)NC2CCCCC2)cc1OC
-2% | N#Cc1cccc(CS(=O)(=O)c2ccccc2)c1
15% | CCCOC(=O)CN1C(=O)c2ccccc2C1=O
10% | O=C(CSc1ncnc2c1oc1ccccc12)Nc1cccc(F)c1
-14% | CC(C)[C@H](NC(=O)c1ccccc1F)C(=O)Nc1ccc2c(c1)OCO2
0% | COc1ccc(-c2cc(C(F)(F)F)nc(SCCC(=O)Nc3ccc(O)cc3)n2)cc1
6% | CCOc1ccc(-c2nnc(SCC(=O)Nc3cc(C)ccc3OC)o2)cc1
6% | COc1ccc(C(CNC(=O)c2cccc(S(=O)(=O)N3CCOCC3)c2)N2CCOCC2)cc1 (centres undefined)
2% | FC(F)(F)c1cccc(-c2ccc(-c3csnn3)o2)c1
-5% | CCOc1cc(/C=N/NC(=O)c2cc(-c3cccc(OC)c3)nc3ccccc23)ccc1O
8% | O=C(Cc1cccc([N+](=O)[O-])c1)Nc1ccc(C(=O)N2CCOCC2)cc1
4% | CCCN1C(C(=O)c2ccccc2)=C(OC(=O)COc2ccccc2)c2ccccc2S1(=O)=O
-28% | O=C(CSc1ncnc2c1oc1ccccc12)Nc1nc2ccccc2s1
0% | O=c1[nH]c(CSc2ccccn2)nc2c1cnn2-c1ccccc1
14% | O=C(NN=Cc1ccccc1O)NN=Cc1ccccc1O
-10% | CN(C)CCN[C@H]1CCC2C3CC=C4C[C@@H](O)CC[C@]4(C)C3CC[C@@]21C (some centres undefined)
4% | O=C(NCCCCNC(=O)c1ccc(F)cc1)c1ccc(F)cc1
5% | CCOc1ncccc1C(=O)OCC(=O)NCCCc1ccccc1
-5% | O=C1C=C(c2ccc(Oc3ccccc3)cc2)C[C@@H](c2ccc(F)cc2)C1
3% | Cc1ccc(NC(=O)C(=O)NCC(c2ccc3c(c2)OCO3)N2CCOCC2)c(C)c1 (centres undefined)
23% | Cc1cccc(N(C(=O)c2snc(C(N)=O)c2N)C(C(=O)NCC2CCCO2)c2c[nH]c3ccccc23)c1 (centres undefined)
-11% | COc1ccc2c(c1)C(C)CC(C)(C)N2C(=O)CSc1ncn[nH]1 (centres undefined)
9% | C=CCc1cc(Cl)ccc1OCCCNCCO
2% | CC(C)CN1CCN(Cc2ccc3ncccc3c2)CC1CCO (centres undefined)
5% | O=C(Nc1ccnc(-c2ccncc2)n1)C1CC1
1% | O=C(NCc1cccnc1)c1ccc(NS(=O)(=O)c2ccccc2)cc1
-7% | Cc1ccc2[nH]c(C)c(CC(=O)NCc3ccccc3)c2c1
8% | Cc1ccc(Cl)c(OCC(=O)Nc2ccccc2C(=O)NC2CC2)c1
-8% | O=C(N/N=C/c1ccncc1)/C(=C/c1ccccc1)NC(=O)c1ccccc1
-5% | CCCn1c2c(c(O)c(C(=O)Nc3ccccc3)c1=O)CCCC2
-2% | O=S(=O)(c1ccccc1S(=O)(=O)N1CCCCC1)N1CCCCC1
0% | COCCNC(=O)c1onc(CSc2cccc(OC)c2)c1C(=O)O
-8% | COc1ccccc1NC(=O)c1cc2c(C)nn(-c3ccccc3)c2s1
-2% | COc1ccc(-c2coc3cc4oc(=O)cc(C)c4cc23)cc1F
5% | Cc1cc(Cl)ccc1NC(=O)NC1CCN(S(=O)(=O)c2ccc(F)cc2)CC1
-8% | CCN(C(=O)CSc1nc2ccccc2c(=O)n1C(C)COC)C1CCS(=O)(=O)C1 (centres undefined)
11% | O=C(NC1(C(F)(F)F)NC(=O)N(c2ccc(F)cc2)C1=O)c1cccs1 (centres undefined)

Carrying on.
VDR inh | mol
-8% | O=C(CNc1ccc(Br)cc1)NNC1=NCCC1
8% | CC(=O)Nc1c2c(nn1-c1ccccc1)CSC2
6% | Cc1cc(O)c(C)c2sc(N)nc12
-1% | O=[N+]([O-])c1ccccc1CNCCO
4% | Cc1nc(C(F)(F)F)ccc1C(=O)Nc1ccc(C(F)(F)F)cn1
-27% | COc1cccc(C(=O)C2CCCN(Cc3cccn3-c3cccnc3)C2)c1 (centres undefined)
-1% | O=c1cnc2cnc(Oc3ccccc3)nc2n1C[C@H]1CCCO1
12% | CCOC(=O)Cn1c(=O)n(C2CCCCC2)c2nc(-c3ccc(C(C)C)cc3)nc(C(N)=O)c21
-7% | Cc1cccc(/N=C/c2c(O)n(Cc3ccc4c(c3)OCO4)c(=O)c3ccccc23)n1
1% | Cc1cccc(C)c1N1C(=O)[C@@H]2C(c3ccccc3Cl)=NO[C@@H]2C1=O
-11% | CSc1cccc(NC(=O)CN2C(=O)COc3ccc(S(=O)(=O)N4CCOCC4)cc32)c1
-16% | C[C@H](CO)N1C[C@H](C)[C@@H](CN(C)C(=O)Nc2ccc3c(c2)OCO3)Oc2c(NC(=O)Nc3ccc4c(c3)OCO4)cccc2C1=O
-15% | OC1(C#Cc2c(-c3ccsc3)oc3ccc(N4CCOCC4)cc23)CCCCC1
-2% | O=C(O)c1cc(-c2ccccc2)c(N2CCOCC2)s1
-3% | CCOC(=O)c1ccc(CN(Cc2ccc(F)cc2)S(=O)(=O)c2ccc(F)c(C(=O)Nc3c(C)cccc3C)c2)cc1
0% | CCN(C(=O)CSc1nnc(NCCOC)s1)c1c(N)n(Cc2ccccc2)c(=O)[nH]c1=O
-13% | CCn1c(SC)nc2cc(S(=O)(=O)N3CCCCC3)ccc21
13% | COC(=O)c1ccc(OCC2c3cc(OC)c(OC)cc3CCN2C(=O)Cc2ccc(OC)cc2)cc1 (centres undefined)
-7% | O=C(COC(=O)/C=C/c1ccccc1[N+](=O)[O-])NC1CCS(=O)(=O)C1 (centres undefined)
0% | COc1ccc(OC)c(NC(=O)c2cc(CN3CCCC3)on2)c1
0% | CN(C(=O)C1CCN(S(=O)(=O)c2cccc3nonc23)CC1)C1CCCCC1
4% | Cc1cccc(NC(=O)CNC(=O)Cc2ccc3c(c2)OCCO3)c1C
-22% | CC1(c2ccc([N+](=O)[O-])cc2)NC(=O)N(CC(=O)Nc2cccnc2Cl)C1=O (centres undefined)
18% | CC(CCc1ccccc1)NC(=O)[C@@H]1Cc2ccccc2CN1 (some centres undefined)
6% | Cc1c(OCC(=O)N2CCC(C(=O)O)CC2)ccc2c3c(c(=O)oc12)CCCC3
-4% | CC(C)NC(=O)N(C)C[C@H]1Oc2c(NC(=O)Nc3ccc(C(F)(F)F)cc3)cccc2C(=O)N([C@H](C)CO)C[C@@H]1C
24% | COc1cccc(NC(=O)C(C)SCc2ccccc2)c1 (centres undefined)
2% | COc1ccc(OC)c(/C=N/NC(=O)C(=O)N2CCCC2)c1
0% | Cc1ccc(Cl)cc1NC(=O)CCN1C(=O)C2C3CCC(C3)C2C1=O (centres undefined)
1% | CC(=O)Nc1ccccc1N(C)S(=O)(=O)c1ccc(C)cc1
-3% | COC(=O)C1CN(C(=O)COc2ccc(Cl)cc2Cl)c2ccccc2O1 (centres undefined)
18% | CCOC(=O)C/C(C)=N/NC(=O)Nc1ccccc1
-2% | CCCOc1ccc(C(=O)N2CCCc3ccccc32)cc1
6% | N#Cc1cncc(C#Cc2ccccc2)c1
8% | Cc1ccc(-c2nn(CCC(=O)Nc3cccnc3)c(=O)c3ccccc23)cc1
23% | CCN(CC)c1nc(-c2nn[nH]n2)nc(N(CC)CC)n1
-11% | CCOC(=O)Nc1ccc2c(c1)nc(CN1CCN(C(C)=O)CC1)n2C
-22% | Cc1ccc(/C=C2\SC(=O)N(CCNC(=O)C3CSC4(C)CCC(=O)N34)C2=O)cc1 (centres undefined)
-6% | CCOc1ccccc1-n1c(SCC(=O)N2CCCc3ccccc32)nnc1-c1cccnc1
-23% | CC(=O)c1ccc(NC(=O)C(NC(=O)c2ccccc2)=C(C)C)cc1

Rewritten tab-delimited: part of the list above.
canonical_smiles	VDR inh
N#Cc1cncc(C#Cc2ccccc2)c1	6%
Cc1ccc(-c2nn(CCC(=O)Nc3cccnc3)c(=O)c3ccccc23)cc1	8%
CCN(CC)c1nc(-c2nn[nH]n2)nc(N(CC)CC)n1	23%
CCOC(=O)Nc1ccc2c(c1)nc(CN1CCN(C(C)=O)CC1)n2C	-11%
Cc1ccc(/C=C2\SC(=O)N(CCNC(=O)C3CSC4(C)CCC(=O)N34)C2=O)cc1 (centres undefined)	-22%
CCOc1ccccc1-n1c(SCC(=O)N2CCCc3ccccc32)nnc1-c1cccnc1	-6%
CC(=O)c1ccc(NC(=O)C(NC(=O)c2ccccc2)=C(C)C)cc1	-23%

(cont.)
VDR inh | mol
-4% | CCNS(=O)(=O)c1ccc(CCC(=O)Nc2ccccc2C(=O)OC)cc1
17% | CCSc1ncnc2sc(C)c(C)c12
9% | O=C(c1ccc(C(=O)N2CCCCCC2)cc1)N1CCCCCC1
4% | C=CCN1C(=O)/C(=C/c2ccccc2)S/C1=N/c1nccs1
8% | O=C(O)C1C2C=CC3(CN(c4cccc(C(F)(F)F)c4)C(=O)C13)O2 (centres undefined)
? | COC(=O)[C@@H](c1ccccc1Cl)N1CCc2sccc2C1
-4% | O=c1oc2ccc(Cl)cc2cc1-c1ccccc1
-4%&-21% | N#Cc1nc(N2CCOCC2)nc(N2CCOCC2)n1
10% | COc1ccccc1-n1c(SCC(=O)N2CCOCC2)nc(O)cc1=O
-3% | COc1ccc2oc(=O)cc(C)c2c1
6% | COc1ccccc1CNC(=O)CN(C)S(=O)(=O)c1ccc(Br)s1
1% | COc1c(O)cc2c(-c3ccccc3)cc(=O)oc2c1OC
-18% | CC(C)NC(=O)c1ccc(OC2CSC2)cc1
-2% | Cc1nc2ccc(C(=O)O)cc2[nH]1
1% | COc1ccc(CN(C)CCc2ccccn2)c(OC)c1OC
-2% | CCN1C(=O)CC(N2CCN(c3ccc(C(=O)c4ccncc4)cc3)CC2)C1=O (centres undefined)
-3% | NNC(=O)CCc1c[nH]c2ccccc12
-1% | Clc1ccc(-c2nc3c4cnn(-c5ccccc5Br)c4ncn3n2)c(Cl)c1
6% | CC(C)COc1ccc(C(=O)OCCN2CCCCC2)cc1
-3% | Cc1cc(Br)cc(C)c1NC(=S)NC(=O)CC(C)C
0% | Cc1ccc(S(=O)(=O)N(C)CC(=O)N2CCN(c3ccccn3)CC2)cc1
-1% | Cc1ccc(C(=O)NCCc2c[nH]c3ccccc23)s1
3% | COc1cccc(/C=C(/C(=O)OCC(=O)NC2CCCCCCC2)c2ccccc2)c1
-19% | CC(Oc1ccc(Cl)cc1Cl)C(=O)NN=C1CCN(C)CC1 (centres undefined)

Next part; the last two above are carried over.
VDR inh | mol
3% | COc1cccc(/C=C(/C(=O)OCC(=O)NC2CCCCCCC2)c2ccccc2)c1
-19% | CC(Oc1ccc(Cl)cc1Cl)C(=O)NN=C1CCN(C)CC1 (centres undefined)
9% | CCCCCCC(=O)Nc1ccc(C(=O)N2CCCC2)cc1
7% | Cc1ccccc1NC(=O)CCC(=O)N/N=C/c1c[nH]c2ccccc12
-6% | Cc1ccc(C(=O)N/C(=C/c2ccco2)C(=O)NC2CCS(=O)(=O)C2)cc1 (centres undefined)
-14% | COc1ccccc1CN1CCC(n2nccc2NC(=O)CCCc2ccccc2)CC1
? | C=CCOc1ccc(-c2nc3c(c(=O)[nH]c(=O)n3CCCC)n2C)cc1OC
1% | CCC1CCCCN1C(=O)CSc1nnc(-c2ccc(OC)cc2)o1 (centres undefined)

Arranged by SMILES length (low to high): 6 of the compounds above.
VDR inh | mol
-19% | CC(Oc1ccc(Cl)cc1Cl)C(=O)NN=C1CCN(C)CC1 (centres undefined)
1% | CCC1CCCCN1C(=O)CSc1nnc(-c2ccc(OC)cc2)o1 (centres undefined)
-14% | COc1ccccc1CN1CCC(n2nccc2NC(=O)CCCc2ccccc2)CC1
? | C=CCOc1ccc(-c2nc3c(c(=O)[nH]c(=O)n3CCCC)n2C)cc1OC
3% | COc1cccc(/C=C(/C(=O)OCC(=O)NC2CCCCCCC2)c2ccccc2)c1
-6% | Cc1ccc(C(=O)N/C(=C/c2ccco2)C(=O)NC2CCS(=O)(=O)C2)cc1 (centres undefined)

An excerpt; rates above refer to the full screens.
